CDC25B-CDK2 inh – human CDC25B-CDK2/CyclinA binding inhibition | P30305+P24941 | HTRF CDC25B-CDK2/CyclinA binding, anti-His/anti-Flag; hits give high values | z-score (test concentration not listed) | hit rate 0.72% among 94,000 | AID 1259370;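 note: score is relative to mean and SD of negative controls; strong numbers were not always called active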
TAR Tat displ – HIV-1 TAR-Tat binding disruption; HIV-1 TAR RNA, Tat peptide displacement FRET; hits give high values; z-score (test concentration not listed); hit rate 0.6% among 100,000;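 note: score is relative to mean and SD of negative controls; some compounds called inactive have numbers as strong as hits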
The depositor's hits bear a star; . = no result given.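 Rule for the calls: active = z-score from 3 up in half or more of its runs; inactive = the rest.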

SMILES	CDC25B-CDK2 inh	TAR Tat displ
CCOC(=O)C1CCN([C@H]2CS(=O)(=O)C[C@@H]2S(=O)(=O)c2ccc(F)cc2)CC1	-0.82	-0.6
CSc1n[nH]c(-c2cc(C(C)(C)C)oc2C)c1C#N	-1.2	.
O=C1CCS(=O)(=O)c2ccccc2N1Cc1ccccc1	0.16	0.47
CCCCNC(=O)CN1C(=O)c2ccccc2S1(=O)=O	-0.32	.
CCN1CNC(=S)N(C(C)c2ccccc2)C1 (stereo not drawn)	0.26	.
COCCNc1nc(NCc2ccccc2OC)c2cnn(C)c2n1	.	1.4
CSc1nc(-c2cccnc2)nc(N)c1C#N	-1.8	.
Cc1ccc(-n2nnc(-c3nc(-c4ccccc4F)no3)c2C)cc1	.	0.58
CCOC(=O)c1cc2c(=O)n(C)c(=O)n(C)c2nc1N	-1.6	.
O=c1c(O[C@@H]2O[C@H](CO)[C@@H](O)[C@H](O)[C@H]2O)c(-c2ccc(O)c(O)c2)oc2cc(O)cc(O)c12	.	28*
O=S(=O)(NCCc1csc(-c2ccc(F)cc2)n1)c1ccc2c(c1)OCCO2	.	0.76
O=C(CN1C(=O)c2ccccc2S1(=O)=O)NCCSCc1ccccc1	0.44	1.4
Cc1csc2ncnc(NNC(=O)c3ccc(Cl)cc3)c12	-1.2	.
COc1nc(-c2ccccc2)ccc1-c1noc(C(C)C)n1	-0.93	1.8
CC(=O)N1CCC2(CC1)OC(=O)C(C)=C2C(=O)Nc1ccccc1Br	.	1.4
Cc1cc(C)n2nc(-c3ccc(F)cc3)nc2n1	-0.88	0.27
COc1ccc(C)cc1S(=O)(=O)N1CCc2cc3ccccc3nc21	-1.3	-1.4
CCN(CC)C(=O)N1CCN(C)CC1	.	2.6
Cc1oc2cc3c(C(=O)N4CCN(C)CC4)c(C)oc3cc2c1C(=O)N1CCN(C)CC1	-0.03	.
Cc1cc(Br)ccc1S(=O)(=O)Nc1cccc(-c2nc(-c3ccccc3)co2)c1	.	2.1
O=C(Nc1cnc2sc3ccccc3n2c1=O)c1ccccc1Cl	1.5	-1.9
CCOc1ccc2c(c1)C1(SC(NC(C)=O)=NN1C(C)=O)C(=O)N2CC (stereo not drawn)	-0.51	.
Cc1ccc(C)c(OC(=O)CSc2nnc(-c3ccc4c(c3)OCO4)o2)c1	-7.4	1
CC1(C)O[C@H]2OC[C@@H]3OC(C)(C)O[C@@H]3[C@H]2O1	-1	.
Cn1c(=O)oc2cc(S(=O)(=O)N3CCC(C(N)=O)CC3)ccc21	-0.52	.
O=C(CC1(O)C(=O)N(Cc2ccccc2)c2ccccc21)c1cccc(Br)c1 (stereo not drawn)	-0.02	.
CCCCn1c(=O)c2c(nc3n2CCN3c2ccc(CC)cc2)n(C)c1=O	.	3.6
COc1cc(O)c2c(=O)c(-c3ccccc3)coc2c1	.	0.08
O=C(NCC1CCCO1)c1ccc(-n2ccc3ccccc32)s1 (stereo not drawn)	.	0.07
CC(C)(C)c1[nH]nc2c1C(c1ccccc1)C(C#N)=C(N)O2 (stereo not drawn)	0.46	0.71

Four of these compounds in another layout.
O=C(NCC1CCCO1)c1ccc(-n2ccc3ccccc32)s1 (stereo not drawn)
  CDC25B-CDK2 inh: .; TAR Tat displ: 0.07

COc1cc(O)c2c(=O)c(-c3ccccc3)coc2c1
  CDC25B-CDK2 inh: .; TAR Tat displ: 0.08

CCCCn1c(=O)c2c(nc3n2CCN3c2ccc(CC)cc2)n(C)c1=O
  CDC25B-CDK2 inh: .; TAR Tat displ: 3.6

O=C(CC1(O)C(=O)N(Cc2ccccc2)c2ccccc21)c1cccc(Br)c1 (stereo not drawn)
  CDC25B-CDK2 inh: -0.02; TAR Tat displ: .

Additional structures follow.
SMILES	CDC25B-CDK2 inh	TAR Tat displ
COC(=O)CN1C(=O)c2cccc3cccc1c23	-0.41	0.26
Cc1n(CC(O)COCc2ccccc2)c2ccccc2[n+]1C (stereo not drawn)	-1.5	1.2
C=CCOc1ccc2c(=O)c(Oc3cc(C)cc(C)c3)coc2c1	-2.9	0.6
NC(=O)CN1CCN(C(=O)NC2CCCCC2)CC1	-2.1	-0.49
COc1ccc(S(=O)(=O)NC2CCSC2=O)cc1 (stereo not drawn)	-1.4	-0.31
CCCCC(=O)OCc1cc(=O)n2nc(CCCC)sc2n1	.	0.74
O=C(Nc1ccc(OC2=NS(=O)(=O)c3ccccc32)cc1)c1cccs1	-1.4	1.7
O=C(Nc1nc2ccccc2s1)C1CC(=O)N(c2ccccc2Cl)C1 (stereo not drawn)	0.76	-0.11
COc1ccc(OC)c(NC(=O)c2cc3ccccc3c(=O)s2)c1	0.26	1.5
N#Cc1nc(COc2ccccc2Cl)oc1NCCN1CCOCC1	0.95	-9.9

Reformatted with bars between the fields: 3 of the compounds above.
structure | CDC25B-CDK2 inh | TAR Tat displ
CCN1CNC(=S)N(C(C)c2ccccc2)C1 (stereo not drawn) | 0.26 | .
COCCNc1nc(NCc2ccccc2OC)c2cnn(C)c2n1 | . | 1.4
CSc1nc(-c2cccnc2)nc(N)c1C#N | -1.8 | .

More compounds:
SMILES	CDC25B-CDK2 inh	TAR Tat displ
O=C(CCc1nnc2ccc(NCc3ccc(F)cc3)nn12)NCc1cccnc1	.	1.7
Cc1cc2c(cc1S(=O)(=O)NCCN(C)C)OCCN2C	.	1.3
C=CCn1c(=S)sc2c(Sc3nc4ccccc4[nH]3)ncnc21	-1.9	.
O=c1[nH]c(-c2ccccn2)nc2c1CSCC2	4	.
Cc1ccc2[nH]cc(S(=O)(=O)c3ccc(C)c(F)c3)c(=O)c2c1	-0.84	1.1
O=C1CCCNc2nn(-c3ccccc3)cc21	.	1.7
O=C(CCC(=O)N1CCOc2ccc(Cl)cc21)N1CCOCC1	-1.6	-1.2
CC(C)N(CC#CCC1(O)c2ccccc2-c2ccccc21)CCO	-0.44	1.6
COCCCNC(=O)Cn1c(C)cc(=O)n2nc(-c3cccs3)nc12	-1.1	-0.19
COc1cc(-c2nc3ncccn3c2NCc2ccc(C)cc2)ccc1OC(C)C	.	-0.78

One compound at a time, as listed above. Screens in order: CDC25B-CDK2 inh	TAR Tat displ
COc1cc(-c2nc3ncccn3c2NCc2ccc(C)cc2)ccc1OC(C)C is listed with .	-0.78
COCCCNC(=O)Cn1c(C)cc(=O)n2nc(-c3cccs3)nc12 is listed with -1.1	-0.19
CC(C)N(CC#CCC1(O)c2ccccc2-c2ccccc21)CCO is listed with -0.44	1.6
O=C(CCC(=O)N1CCOc2ccc(Cl)cc21)N1CCOCC1 is listed with -1.6	-1.2

(continued)
SMILES	CDC25B-CDK2 inh	TAR Tat displ
Cc1ccc2nc(NC(=O)Nc3ccc(F)cc3)sc2c1	-2	.
Cc1cc(N2CCCC2)nc(N2CCN(C(=O)Nc3ccccc3)CC2)n1	.	1.2
N#CC(CCC(=O)O)(CCC(=O)O)S(=O)(=O)c1ccccc1	0.95	.
O=c1cc(-c2ccccc2)oc2cc(O)ccc12	.	0.1
O=C(c1cc2c(s1)-c1ccc(Cl)cc1S(=O)(=O)C2)N1CCc2ccccc2C1	-16	0.33
Cc1ccc(/C(C#N)=C/c2cccs2)cc1	-0.64	.
O=S(=O)(Cc1ccc(Cl)cc1)N1CCN(c2ncccn2)CC1	-2.5	.
Fc1ccc(CN2CCN=C2c2c[nH]c3ccccc23)cc1	-1.1	-0.73
COc1cc(NC(=O)C(c2ccccc2)C2CCCC2)cc(C(F)(F)F)c1 (stereo not drawn)	-1.9	.
COC(=O)c1cc(C)nc(Sc2ccccc2NC(=O)c2ccccc2)n1	-2.3	.
Cc1cccc(-n2cc(-c3ccccc3)c3c(NCc4cccnc4)ncnc32)c1	-3.2	0.27
CSc1nsc(SC)c1CSc1ccc(Cl)cc1	-1.5	.
O=C(CC1Nc2c3ccccc3nc(=S)n2C1=O)NCc1ccco1 (stereo not drawn)	-1	.
O=S(=O)(c1ccccc1)N(Cc1cc(CN2CCOCC2)cs1)c1ccc(Cl)cc1	.	-0.22
CCOc1c(Br)cc(C2C(C(=O)OC)=C(C)NC3=C2C(=O)c2ccccc23)cc1OC (stereo not drawn)	0.31	-0.55
Cc1cc(C)cc(NC(=O)CSc2nnc(Cc3c(C)nc4c(C)cccn4c3=O)n2C)c1	-0.05	1.2
Cc1nn(CC(=O)NCCCN2CCOCC2)c(=O)c2cc3cc(F)ccc3n12	0.05	0.23
COc1ccc(NC(=O)c2cnc3scc(C)n3c2=O)cc1	-3.7	.
O=C(NC1CCCCC1)c1cc2cccc3c2n1CCO3	.	-0.62
COc1cccc(-c2cc(C(F)(F)F)nc(S(C)(=O)=O)n2)c1	-4.5	.
O=C(Cn1c(=O)c2sccc2n(Cc2cc(=O)n3ccccc3n2)c1=O)NCc1ccco1	-0.95	.
Cc1nn(-c2ccccc2)c(-n2cccc2)c1CNC(=O)Nc1ccc2c(c1)OCCO2	.	0.32
Cc1ccc2nc(NC(=O)Nc3ccc4c(c3)N(C)C(=O)CS4)sc2c1	4.8	-1.3
Cc1n[nH]c(C)c1CCCCCOc1ccccc1	-1.4	-0.21
CN(CC(=O)Nc1ccccc1F)S(=O)(=O)c1ccc2c(c1)CCC(=O)N2	-1.1	.
O=S(=O)(c1ccc(Cl)cc1)N1CCN(c2nc3ccccc3n3cccc23)CC1	-2.3	-1.3
COC(=O)CCCC(=O)Nc1ccc2c(c1)sc(=O)n2C	.	1.1
CCCS(=O)(=O)Nc1ccc2c(c1)N(S(=O)(=O)c1ccccc1)CCC2	.	1.6
CC(C)Nc1nc(NCCN2CCOCC2)nc2c1cnn2C	.	-0.54
c1ccc(-n2nnnc2SCCCNCc2cccs2)cc1	0.87	1.2
O=C(Nc1cccc(C(=O)N(Cc2ccccc2)Cc2ccccc2)c1)[C@@H]1[C@H]2C[C@H]3[C@@H]1C(=O)O[C@H]3C2	-1.1	-1.2
O/N=C/c1ccc(Cl)s1	-0.61	.
COc1cc(OC)c(OC)cc1CN1CCN(Cc2ccc(SC)cc2)CC1	0.32	.
CSc1cccc(NC(=O)C2c3ccccc3C(=O)N(C)C2c2cccs2)c1 (stereo not drawn)	.	2.8
CCOC(=O)N1CCN(c2c(NCCN(C)C)c(=O)c2=O)CC1	.	1.4
Cc1ccc(C2c3c(oc4cc(C)cc(C)c4c3=O)C(=O)N2Cc2ccco2)cc1 (stereo not drawn)	-1.1	0.25
O=C(Nc1ccccc1)Nc1ccccc1Sc1ncc([N+](=O)[O-])s1	-2.1	.
CNc1cc(C(C)(C)C)nc2c(-c3ccc(F)cc3)c(C)nn12	-1.2	0.38
CN1C(=O)C(C)(C)c2cc(S(=O)(=O)NCc3cccs3)ccc21	.	1.2
O=C1CSc2ccc(S(=O)(=O)CCC(=O)N3CCN(C4CCCCC4)CC3)cc2N1	.	-2.3
CCc1nn2c(=O)c(S(=O)(=O)Nc3ccc(C)c(C)c3)c(C)nc2s1	0.72	1.3
CC(C)c1ccc(-n2cccc2)cc1	.	1.1
Cc1nc2ccccc2n1C(F)(F)C(F)Cl (stereo not drawn)	-1.6	.
CC(C)CC(=O)Nc1nc2c(s1)CCCC2	-0.23	-0.09
O=C(CN1CCSc2ccccc21)N1CCN(c2cccc(Cl)c2)CC1	.	-0.53
O=C1C2N=NN(Cc3cccc(F)c3)C2C(=O)N1c1ccc(Cl)cc1 (stereo not drawn)	-0.95	-0.22
CCCc1nnc(NC(=O)C(CC)Sc2nnnn2-c2ccccc2)s1 (stereo not drawn)	-0.63	0.79
CCn1c(=O)c(-c2noc(CCC(=O)O)n2)nn(-c2ccc(Cl)cc2)c1=O	-1.2	1.2
COC(=O)c1cc(OC)ccc1Oc1cccc(OC)c1	-0.58	.
CCCc1nn2c(=O)cc(COC(=O)C(C)C)nc2s1	.	-0.4

More compounds follow.
SMILES	CDC25B-CDK2 inh	TAR Tat displ
CCOc1ccc(-c2nc3c(c(=O)[nH]2)Cc2c(ccc4ccccc24)O3)cc1	-0.27	0.34
COc1ccc(OC)c(NC(=O)CSc2nc3ccccc3nc2N2CCCC2)c1	-1.9	-2.3
c1ccc2c(c1)nc(Nc1ccc3c(c1)OCCO3)c1nncn12	-1.1	0.93
CC1CCC(NC(=O)C2CCCN(S(=O)(=O)c3ccc4c(c3)CC(C)N4C(=O)C3CC3)C2)CC1 (stereo not drawn)	.	0.28
CC1=CC(C)(C)Nc2ccc(OC(=O)c3cccnc3)cc21	-3.2	0.59
COc1cccc(CC(=O)NC2CCN(c3nccc(C(F)(F)F)n3)CC2)c1	-1.6	.
Cc1ccc(N2C(=O)c3cccnc3C2=O)cc1	2.4	1.8
CN(C)C(=O)c1ccc2c(c1)ncn2CCNC(=O)NC1CCCC1	.	-0.75
Cc1ccc(CNc2nc(NCCCO)nc3c2cnn3C)cc1	.	1.8
O=C(CSc1nccn(-c2ccccc2)c1=O)c1ccccc1	.	0.24
CCc1cccc(CC)c1NC1=NC2CS(=O)(=O)CC2S1 (stereo not drawn)	-1.7	2.8
CN(C)CCNc1nc(N)c([N+](=O)[O-])c(Nc2cccc(Cl)c2)n1	.	1.9
c1ccc(-c2cc(N3CCOCC3)n3cnnc3n2)cc1	-2.3	0.75
O=c1ccc(-c2ccccc2)nn1Cc1nnc(SCc2cccc(F)c2)o1	.	0.48
CN1C(=O)N(C)C2(O)c3ccccc3C(=O)C12O (stereo not drawn)	0.85	.
CCOC(=O)/C(C#N)=C1\SC=C(c2ccccc2)N1c1c(C)cccc1C	-11	.
CCOC(=O)Cc1csc(-c2ncc(C(F)(F)F)cc2OCC)n1	-0.57	.
CCOC(=O)c1nnn(-c2nonc2N)c1-c1ccc(Cl)cc1	-0.94	0.14
O=C(Cn1c2ccccc2c(=O)c2ccccc21)NCCc1c[nH]c2ccccc12	0.88	0.85
CCC1(C)Cc2c(sc3nc(SCc4ccc(F)cc4)nc(N)c23)CO1 (stereo not drawn)	1.8	1.7
O=C1CCCC(O)=C1Br	-3.6	.
CN(Cc1ccccc1)Cc1nc2c(c(=O)n(C)c(=O)n2C)n1Cc1cccc(Cl)c1	3.5	-0.32
Cc1ccc(NS(=O)(=O)c2ccc3c(c2)CC(=O)N3)cc1Cl	1.2	0.63
O=C(NCCN1CCCCC1)C1CCCN(c2nc3cccnc3s2)C1 (stereo not drawn)	.	0.38
O=C(CSCc1cnn(-c2ccccc2)c1-n1cccc1)N1CCN(c2ccc(F)cc2)CC1	-1.2	1.8

Bioassay records as filed in PubChem BioAssay.
